HSF-1 act = HSF-1 activators, primary screen, NIH3T3-HGL cells, MG132 stress, luminescence, single point. activation, % at 9 µM. AID 504408, 2011. NIH3T3-HGL HSF-1 luciferase reporter, 8 h; 100% = twice DMSO control signal. actives 1.7% (n = 300,000);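 active means mean replicate activation of at least 50% with a set share of replicates each reaching 50%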;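 further: 0% = median of the neutral control wells and 100% = twice that signal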
AI-2 QS modul = Vibrio harveyi AI-2 quorum sensing modulators, primary screen, JMH597 strain, luminescence/OD600 ratio | Vibrio harveyi JMH597 AI-2 luminescence/OD600 ratio, 9 h; stronger effect = lower value; strain lacks LuxN and CqsS sensors; 0 = neutral-control median | activity change, % at 7.5 µM | actives 0.4% (n = 300,000); in the data active means activity change below about -75%, passing the limit was not always enough;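 further: luminescence divided by OD600 gain over 9 h not by final OD600 alone; inactives centre near 13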
KLF5 inh = KLF5 expression inhibitors, primary screen, DLD-1 cells, luminescence. inhibition, % at 5 µM. actives 0.23% (n = 290,000). DLD-1 KLF5 promoter-luciferase reporter;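 active means inhibition above a per-plate limit of that plate's mean compound inhibition plus 3 SD, cut at about 60% in these data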;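 further: 0% = DMSO wells and 100% = LY294002 at 200 µM; higher means less KLF5 promoter-driven luciferase light; inactives centre near -14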
HSF1 inhib = HSF1 inhibitors in luciferase reporter cells, primary screen, cell-based, NIH3T3, luminescence; NIH3T3-HGL HSE-luciferase, MG132-induced, luminescence 8 h; stronger effect = lower value; activity change, negative = inhibition, % at 7.5 µM (by protocol); actives 0.77% (n = 300,000); AID 2098, 2009;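 active means more than half of replicate wells show activity change below -50%, luminescence cut by over half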;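 further: luciferase reports HSF-1 transcriptional activity via heat shock element; 0% = median of DMSO wells and -100% = zero luminescence signal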
GSK3B inh = human GSK3beta kinase inhibitors, primary screen, biochemical, cell-free homogeneous, HTS; Glycogen synthase kinase-3 beta (Homo sapiens), P49841; GST-GSK3beta kinase, ADP-Glo luminescence, 60 min; stronger effect = lower value; activity score (negative = inhibition), % at 10 µM; actives 0.038% (n = 300,000); AID 2097, 2009;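 active means more than half of replicate wells score below -50%, meaning over 50% inhibition versus plate controls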;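 further: 0% = median DMSO wells and -100% = median GW8510 positive control wells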
Target sequence (P49841 whole entry, looked up): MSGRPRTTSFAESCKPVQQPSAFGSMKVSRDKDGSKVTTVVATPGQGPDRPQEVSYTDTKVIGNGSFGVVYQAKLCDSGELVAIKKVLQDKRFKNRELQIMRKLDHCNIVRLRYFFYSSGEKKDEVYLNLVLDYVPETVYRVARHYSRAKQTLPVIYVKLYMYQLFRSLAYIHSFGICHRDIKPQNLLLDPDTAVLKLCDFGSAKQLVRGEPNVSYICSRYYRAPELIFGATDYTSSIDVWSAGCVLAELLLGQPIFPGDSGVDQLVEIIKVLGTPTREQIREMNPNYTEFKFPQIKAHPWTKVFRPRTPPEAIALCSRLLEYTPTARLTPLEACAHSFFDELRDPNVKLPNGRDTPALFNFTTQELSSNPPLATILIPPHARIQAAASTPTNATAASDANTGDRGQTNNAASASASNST
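Assay system: GST-tagged human GSK3beta kinase, cell-free; Input: 1.6 ng GSK3beta; Medium: Tris/MgCl2 kinase buffer; Timing: 60 min enzyme reaction, room temperature; Signal: ADP-Glo luminescence quantifying ADP generated by kinase; Evaluation: score relative to plate controls; Benchmarks: DMSO neutral wells and GW8510 at 20 µM as positive.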
GSK3A inh = blockers of GSK3A enzyme activity – biochemical, luminescence, cell-free homogeneous, HTS, primary screen. actives 0.1% (n = 320,000). Glycogen synthase kinase-3 alpha (Homo sapiens), P49840. GSK-3 alpha kinase, ADP-Glo luminescence, 60 min. inhibition, % at 10 µM;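 in the data active means inhibition above about 50%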;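 further: GST-tagged GSK-3 alpha with peptide substrate and 25 µM ATP; 0% = DMSO neutral wells and 100% = GW8510 positive control wells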
Starred values were filed as active, the others as inactive; x = not tested or not shown; & = joins results of further samples.

HSF-1 act	AI-2 QS modul	KLF5 inh	HSF1 inhib	GSK3B inh	GSK3A inh	Structure
6	15	-19	-1	-1	-1	O=C(C1CCCCC1)N1CC(=O)N2CCc3ccccc3C2C1 (stereo not drawn)
-21	18	20	0	3	-3	CCN(CC)CCNC(=O)c1ccc(N)cc1
-10	20	-15	-1	0	-6	CN1Cc2c(N)cccc2C(c2ccccc2)C1 (stereo not drawn)
-23	43	-34	-1	-1	-2	CN(C)CCOC(c1ccccc1)c1ccccc1 (tested in a mixture with another compound)
-4	11	-5	10	-19	31&29	CN1CCc2cccc3c2[C@H]1Cc1ccc(O)c(O)c1-3
x	26	-5	x	x	x	CN1CCc2cccc3c2[C@@H]1Cc1ccc(O)c(O)c1-3
-21	18	-10	-9	-9	11	CSc1ccc2c(c1)N(CCC1CCCCN1C)c1ccccc1S2 (stereo not drawn)
2	-6	-7	1	-1	-5	CC(C)OC(=O)C(C)(C)Oc1ccc(C(=O)c2ccc(Cl)cc2)cc1
13	14	-7	-3	1	0	CC(=O)N1CCN(C(c2ccccc2)c2ccccc2)CC1

An excerpt from above in order of count of non-hydrogen atoms, ascending.
HSF-1 act	AI-2 QS modul	KLF5 inh	HSF1 inhib	GSK3B inh	GSK3A inh	Structure
-21	18	20	0	3	-3	CCN(CC)CCNC(=O)c1ccc(N)cc1
6	15	-19	-1	-1	-1	O=C(C1CCCCC1)N1CC(=O)N2CCc3ccccc3C2C1 (stereo not drawn)
2	-6	-7	1	-1	-5	CC(C)OC(=O)C(C)(C)Oc1ccc(C(=O)c2ccc(Cl)cc2)cc1

Copied from the results shown, 4 compounds:
HSF-1 act	AI-2 QS modul	KLF5 inh	HSF1 inhib	GSK3B inh	GSK3A inh	Structure
x	26	-5	x	x	x	CN1CCc2cccc3c2[C@@H]1Cc1ccc(O)c(O)c1-3
-21	18	-10	-9	-9	11	CSc1ccc2c(c1)N(CCC1CCCCN1C)c1ccccc1S2 (stereo not drawn)
2	-6	-7	1	-1	-5	CC(C)OC(=O)C(C)(C)Oc1ccc(C(=O)c2ccc(Cl)cc2)cc1
13	14	-7	-3	1	0	CC(=O)N1CCN(C(c2ccccc2)c2ccccc2)CC1

Entries of single compounds as entered above.
CSc1ccc2c(c1)N(CCC1CCCCN1C)c1ccccc1S2 (stereo not drawn) as listed: HSF-1 act = -21; AI-2 QS modul = 18; KLF5 inh = -10; HSF1 inhib = -9; GSK3B inh = -9; GSK3A inh = 11
CN1Cc2c(N)cccc2C(c2ccccc2)C1 (stereo not drawn) as listed: HSF-1 act = -10; AI-2 QS modul = 20; KLF5 inh = -15; HSF1 inhib = -1; GSK3B inh = 0; GSK3A inh = -6

Screening results (PubChem)

Only part of the results is shown; the hit share may differ from the screen's.
